TAR Tat displ – TAR RNA-Tat peptide displacers, HIV-1, primary screen, biochemical, FRET, FAM/TAMRA-labeled Tat. HIV-1 TAR RNA, Tat peptide displacement FRET; hits give high values. z-score (no concentration beside the values). actives 0.6% (n = 100,000);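 also: score is relative to mean and SD of negative controls; some compounds called inactive have numbers as strong as hits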
CDC25B CDK2 inh – primary biochemical HTRF screen for blockers of M-phase inducer phosphatase 2 binding to CDK2/cyclin A. actives 0.72% (n = 94,000). z-score (no concentration beside the values). AID 1259370, 2018. HTRF CDC25B-CDK2/CyclinA binding, anti-His/anti-Flag; hits give high values. P30305+P24941;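 also: score is relative to mean and SD of negative controls; strong numbers were not always called active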
* marks the source's active call; other numbers are inactive results; . = no result given.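 The calls were made as follows: active = z-score from 3 up in half or more of its runs; inactive = the rest.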

SMILES | TAR Tat displ | CDC25B CDK2 inh
CN1CCN(CCCNC(=O)C2CCN(c3nc4ccccc4n4cccc34)CC2)CC1 | 1.08 | .
O=C(C1CCN(S(=O)(=O)c2cccnc2)CC1)N1CCCSc2ccccc21 | 1.65 | .
CC(C)Cc1cc(C(=O)N2CCC3(CC2)Nc2ccccc2-n2cccc23)no1 | 0.23 | -2.07
CCOC(=O)C1=C(c2ccccc2)N=C2SCC(=O)N2C1c1ccc(OCC)cc1 (configuration not stated) | -0.32 | -1.04
CC1=C(C(=O)NC2CCCCC2)C2(CCN(S(C)(=O)=O)CC2)OC1=O | -0.99 | .
CC1(C)CC(=O)C2=C(C1)Nc1ccccc1N(CC(=O)NCc1cccs1)C2c1ccco1 (configuration not stated) | -0.87 | .
O=c1c2ccccc2n2c(-c3ccc(F)c(F)c3)nnc2n1CCc1ccccc1 | 0.76 | -0.24
CC1(C)CC(=O)C2=C(C1)OC(N)=C(C#N)C2c1ccc(F)cc1 (configuration not stated) | . | -2.27
Cc1ccc(C)n1-c1ccc(N)cc1 | -1.64 | -0.72
O=C(Oc1ccc2c3c(c(=O)oc2c1)CCCC3)C(c1ccccc1)c1ccccc1 | . | -8.38
O=C(O)c1cc(-c2ccccn2)n[nH]1 | 0.58 | 0.72
C=CCSc1nnc2sc3ccccc3n12 | 2.13 | -0.23
CN(C)CCC(c1ccccc1)c1ccccn1 (configuration not stated) | -0.33 | -0.98
Cc1nc(SCC(N)=O)c([N+](=O)[O-])[nH]1 | 0.16 | 0
Nc1ccc(Cl)c(-c2nnc(-c3ccccc3)o2)c1 | 1.53 | .
Cc1n[nH]c(C)c1-c1ncccc1[N+](=O)[O-] | . | -1.67
Cc1nc2ccccc2c2c1C(=O)N(c1ccc(F)c(Cl)c1)C2=O | -0.59 | 0.93
O=C(COCc1cc(-c2cccs2)on1)Nc1cccnc1 | -0.32 | .
CCOC(=O)N1CCN(C(=O)CSc2nc3c([nH]c4ccccc43)c(=O)n2CC)CC1 | 1.36 | .
CCOC(=O)C(C)Oc1ccc(S(N)(=O)=O)cc1 (configuration not stated) | . | -1.56

The closing six entries of the part above lead into the next.
SMILES | TAR Tat displ | CDC25B CDK2 inh
Nc1ccc(Cl)c(-c2nnc(-c3ccccc3)o2)c1 | 1.53 | .
Cc1n[nH]c(C)c1-c1ncccc1[N+](=O)[O-] | . | -1.67
Cc1nc2ccccc2c2c1C(=O)N(c1ccc(F)c(Cl)c1)C2=O | -0.59 | 0.93
O=C(COCc1cc(-c2cccs2)on1)Nc1cccnc1 | -0.32 | .
CCOC(=O)N1CCN(C(=O)CSc2nc3c([nH]c4ccccc43)c(=O)n2CC)CC1 | 1.36 | .
CCOC(=O)C(C)Oc1ccc(S(N)(=O)=O)cc1 (configuration not stated) | . | -1.56
Cc1cc2nc(COC(=O)C3CCCCC3)cc(=O)n2o1 | 0.08 | .
CCOC(=O)c1ccc2[nH]c(CSc3n[nH]c(-c4ccc(C)cc4)n3)cc(=O)c2c1 | -1.49 | .
COc1ccc(N2CCN(C(c3cccs3)c3sc4nc(C)nn4c3O)CC2)cc1 (configuration not stated) | . | -0.86
CCCSc1nc(=O)n(C2CCCC2)c2c1CCC2 | 0.8 | -1.76
CCOC(=O)c1cc(/C(C)=N/OC(=O)c2ccc(Cl)cc2)on1 | . | -0.76
O=C(CN1C(=O)c2ccccc2Sc2ncccc21)N1CCc2ccccc21 | -0.25 | .
O=c1c(Nc2ccc(F)c(Cl)c2)c(-c2ccccc2)c1=O | 2.36 | .
Cc1cc2c3c([nH]c2cc1S(=O)(=O)N1c2ccccc2CC1C)CC(C)(C)CC3=O (configuration not stated) | 1.2 | .
Cc1ccc(C2c3c(oc4cc(C)c(C)cc4c3=O)C(=O)N2CCCN2CCOCC2)cc1 (configuration not stated) | 0.56 | -1.46
Cc1ccc(-c2onc(C)c2C)cc1S(=O)(=O)NCc1ccc(Cl)cc1 | 1.07 | .
Cc1ccc(-c2nc3c4c(C)c(C)n(CCCN5CCOCC5)c4ncn3n2)cc1 | 1.47 | -2.22
O=C(O)c1ccc2c(c1)[C@@H]1C=CC[C@@H]1[C@H](c1cccc(C(F)(F)F)c1)N2 | . | -0.52
COc1cccc(C(=O)c2c(N)c(-c3nc(-c4cc(OC)ccc4OC)cs3)c3ccccn23)c1 | 1.03 | -0.97
O=C(Nc1ccccc1)N1CCC(n2c(CC3CCCC3)nc3cccnc32)CC1 | 0.64 | .
Cc1csc(NC(=O)c2cc(C(C)C)n(C3CCS(=O)(=O)C3)n2)n1 (configuration not stated) | 1.55 | -0.7
Cc1ccc(Nc2nc(NCCCO)nc3c2cnn3C)cc1C | 0.8 | .
Cc1ccc(S(=O)(=O)c2nc(Nc3c(C)n(C)n(-c4ccccc4)c3=O)sc2Cl)cc1 | . | -1.35
Cc1ccc2nc(-c3ccc(N)cc3O)oc2c1 | 2.07 | -0.87
Cc1ccc(C(=O)O)cc1-n1c(C)ccc1-c1ccccc1 | . | 1.33
CCCCSc1nnc2c(n1)OC(c1ccc([N+](=O)[O-])o1)Nc1ccccc1-2 (configuration not stated) | -3.59 | -0.08
Cc1ccccc1C1CC(=O)NC2=C1C(=O)CCC2 (configuration not stated) | 0.81 | -1.6
CC(=Nc1ccccc1C(F)(F)F)c1ccncc1 | . | -2.02
Cc1c(C(=O)N2CCCC2)oc2c1-c1nn(CC(=O)NCCCN3CCCC3=O)cc1CC2 | 2.99 | .
CCCN(Cc1cc2cc(C)ccc2[nH]c1=O)S(=O)(=O)c1ccc(C)cc1 | 0.33 | -0.8
Cc1ccc(C(=O)N(Cc2nc(-c3ccc(Cl)cc3)no2)C(C)C)cc1 | . | -0.86
COC(=O)c1c(SCC(=O)Nc2cccc(Br)c2)[nH]c2ccccc2c1=O | 0.42 | .
COc1csc2nc(C)cc(C)c12 | 0 | -1.31
CS(=O)(=O)n1nc(-c2ccco2)nc1NCc1cccc(Cl)c1 | 1.4 | -1.94
CCOC(=O)c1sc2cccc(F)c2c1S(=O)(=O)Nc1cc(OC)cc(OC)c1 | 0.65 | .
CCc1nc2n(n1)C1(CCCCC1)[C@@H]1CCCC[C@@H]1N2C(=O)COC | 0.56 | -1.5
COc1ccc(Nc2nc(C)c3ncn(-c4ccc(OC)cc4)c3n2)cc1 | -0.05 | -0.8
CC(C)c1ccc(-c2c(NCCc3ccc(Cl)cc3)c(=O)c2=O)cc1 | 2.97 | .
Cc1cc(C)cc(OCCOc2ccccc2/C=C2\SC(=O)NC2=O)c1 | . | -1.93
Cc1n[nH]c(=O)c2c(C)n(-c3ccccc3)nc12 | 1.25 | -0.2
Cc1nn(S(=O)(=O)c2ccc(Cl)cc2)c(C)c1S(=O)(=O)N(C)c1ccccc1 | 0.53 | .
COc1ccc(OC)c(NC(=O)c2cc(C3CC3)[nH]n2)c1 | 0.4 | .
Cc1cc(C)c2c(=O)c(/C=C3/SC(=S)N(c4cccc(Cl)c4)C3=O)coc2c1 | . | -0.42
COc1cc2c(c(OC)c1OC)-c1c(cc3c(c1OC)OCO3)CC(C)C(C)(O)C2OC(=O)c1ccccc1 (configuration not stated) | -1.32 | .
CCCc1cc(=O)n2[nH]c(NC(=O)COc3ccc(Cl)cc3)nc2n1 | 1.84 | 1.43
COC(=O)c1c(NC(=O)c2snnc2C)sc2c1CCC2 | 0.62 | -2.02

Of the compounds above, these have a thiophene ring, fused or not.
SMILES | TAR Tat displ | CDC25B CDK2 inh
CC1(C)CC(=O)C2=C(C1)Nc1ccccc1N(CC(=O)NCc1cccs1)C2c1ccco1 (configuration not stated) | -0.87 | .
O=C(COCc1cc(-c2cccs2)on1)Nc1cccnc1 | -0.32 | .
COc1ccc(N2CCN(C(c3cccs3)c3sc4nc(C)nn4c3O)CC2)cc1 (configuration not stated) | . | -0.86
COc1csc2nc(C)cc(C)c12 | 0 | -1.31
CCOC(=O)c1sc2cccc(F)c2c1S(=O)(=O)Nc1cc(OC)cc(OC)c1 | 0.65 | .
COC(=O)c1c(NC(=O)c2snnc2C)sc2c1CCC2 | 0.62 | -2.02

Continuation:
SMILES | TAR Tat displ | CDC25B CDK2 inh
CCn1c(-c2ccccc2)n[nH]c1=S | . | -0.42
CCOc1ccc(C2OC(c3cc(Br)c(OC)cc3OC)=NN2C(C)=O)cc1 (configuration not stated) | 1.02 | .
Cc1ccccc1-c1nnc(SCCOc2ccccc2)o1 | -0.06 | -1.07
Cc1cccc(NC(c2ccccc2C)c2ccc3ccc(C)nc3c2O)n1 (configuration not stated) | 1.29 | 3.85
Clc1cccc(CSc2nncn3c2cc2sccc23)c1 | 3 | .
Cc1nc(-c2ccc(S(=O)(=O)N3CCC(Cc4ccccc4)CC3)cc2)cs1 | . | -0.75
Cc1ccc2nc3c(cc(C#N)c(=O)n3-c3cccc(Br)c3)c(=O)n2c1 | 0.12 | -1.07
Cc1ccc(-c2nnc(-c3ccccc3)o2)cc1 | 0.2 | -2.23
COC(=O)Cn1ncn2nc(-c3ccc(OC)cc3)cc2c1=O | -0.1 | 0.38
CCOc1ccc2c(c1)C(OC(C)=O)C(C)(C)C(c1ccc(F)cc1)N2 (configuration not stated) | . | -0.33
O=S1(=O)N=C(Nc2ccccc2)c2ccccc21 | 0.63 | -0.37
CCn1c(SCc2nc(-c3ccccc3)no2)nc2cc3c(cc2c1=O)OCO3 | 2.41 | .
C=C(C)Cn1c(CCCCCNC(C)=O)nc2ccccc21 | -0.49 | -1.36
O=C(c1ccc(CS(=O)c2ccccc2)o1)N1CCOCC1 (configuration not stated) | -0.23 | -1.85
CC(=O)OCCNc1cc(N2CCN(C)CC2)c2noc3c2c1C(=O)c1ccccc1-3 | -4.04 | 0.8
COc1ccc(C2=NS(=O)(=O)N(C)C(C(=O)N3CCCC3)=C2)cc1OC | 1.63 | -1.37
Cc1nnc2c(Nc3cccc(F)c3)nc3ccccc3n12 | -0.69 | -2.8
CC(C)COCC1CC2(CC(C)(c3csc(Nc4ccccc4)n3)OC2=O)C(=O)O1 (configuration not stated) | 1.51 | -0.68
COc1ccc(NC(=O)c2nn(C)cc2[N+](=O)[O-])cc1 | 2.7 | -1.65
COC(=O)c1sc2ccccc2c1NC(=O)c1ccco1 | . | -1.28
Cc1cc(C(=O)CSc2nc(=O)n(C3CCS(=O)(=O)C3)c3c2CCC3)ccc1F (configuration not stated) | -1.05 | -0.98
COc1ccc(Cl)cc1NC(=O)CSc1nc2c(c(=O)[nH]1)CCC2 | 1.92 | 0.46
CC1=C(C(=O)OCCOc2ccccc2)C(c2ccccc2OC(C)C)C2=C(CC(C)(C)CC2=O)N1 (configuration not stated) | -0.54 | -1.93
O=C(c1ccc(F)cc1)N1CCN(Cc2cc(=O)n3ccccc3n2)CC1 | -0.76 | .
C=CCc1cc2c(C)cc(=O)oc2c(C)c1O | . | 0.12
CCCCC(=O)NCC(c1ccco1)N(C)C (configuration not stated) | -0.01 | -0.61
NC(N)=Nc1nc(-c2cc(Cl)sc2Cl)cs1 | . | -1.23
COC(=O)C1=C(OC(=O)c2ccccc2Br)c2ccccc2S(=O)(=O)N1C | 0.79 | -1.59
Cn1ncc2c(Nc3ccc(Cl)cc3)ncnc21 | 1.7 | .
Cc1nc(SCCOc2ccccc2)cc(-c2ccccc2)n1 | -0.37 | -0.11
Cc1cnc(NC(=O)C(=O)c2cc(C)n(-c3ccc(F)cc3)c2C)s1 | 3.14 | -1.35
COc1cc(C2c3c(oc4ccc(F)cc4c3=O)C(=O)N2c2nccs2)ccc1O (configuration not stated) | 0.1 | 1.34
O=C(CCS(=O)(=O)c1ccc2c(c1)NC(=O)CO2)Nc1ccc(F)cc1Cl | -2.42 | .
COCCOc1ccc(N=Cc2ccccc2O)cc1C(=O)O | . | -1.43
COc1ccc2sc(C)[n+](CC(O)CS(=O)(=O)[O-])c2c1 (configuration not stated) | -0.65 | -1.9
Cc1cc(Nc2ccc(Br)c(C)c2)n2nc(-c3ccco3)nc2n1 | 0.44 | .
CC1CCc2nn(CC(=O)O)cc2C1 (configuration not stated) | 0.98 | -0.69
Cc1cc(COc2ccccc2OCCN2CCN(C)CC2)no1 | 0.49 | 1.08
COC(=O)c1ccc(C2c3c(oc4cc(C)c(C)cc4c3=O)C(=O)N2c2ccc(C)cn2)cc1 (configuration not stated) | 0.74 | -0.48
Cc1nc2ccccc2n1CCN1CCCCC1 | 0.64 | -0.42

One compound at a time, as listed above. Screens in order: TAR Tat displ, CDC25B CDK2 inh
CCOC(=O)C(C)Oc1ccc(S(N)(=O)=O)cc1 (configuration not stated) as listed: ., -1.56
O=C(CCS(=O)(=O)c1ccc2c(c1)NC(=O)CO2)Nc1ccc(F)cc1Cl as listed: -2.42, .

Next section
SMILES | TAR Tat displ | CDC25B CDK2 inh
COc1cc(C2Nc3ccccc3NC3=C2C(=O)CC(c2ccccc2)C3)cc(Cl)c1O (configuration not stated) | -3.9 | -2.32
Cc1ccc(-n2ccc(=O)c(C(=O)Nc3sc4c(c3C(=O)NCc3ccco3)CCC4)n2)cc1 | 1.26 | 1.36
O=C(NCCCN1CCOCC1)c1cc2c(s1)-c1ccccc1OC2 | 0.49 | -0.51
COc1ccc2c(c1)sc(/C=C/c1ccc(O)cc1)[n+]2C | -7.1 | 0.55
O=C(Nc1cccc(C(F)(F)F)c1)/C(=C\c1cccs1)c1ccsc1 | . | -0.18
CCOC(=O)Cn1nc([N+](=O)[O-])c(Br)c1C | 3.21 | .
CC(=O)/C(C)=N/NC(=O)CC#N | . | -0.12
CC1(C)C2CCC1(C)C(C#N)(Nc1ccccc1)C2 (configuration not stated) | . | -1.1
Cc1cc(S(=O)(=O)[C@H]2CS(=O)(=O)C[C@@H]2NCc2cccnc2)ccc1F | 0.75 | -1.41
CCc1nn2c(=O)c(S(=O)(=O)N3CCN(c4ccccn4)CC3)c(C)nc2s1 | 0.61 | -0.67
CCOC(=O)c1c(C)oc2ncnc(NCCCN3CCCCC3CC)c12 (configuration not stated) | 0.39 | .
COC(=O)C1=NNC(C(=O)OC)=NN1 | . | -1.76
COc1ccc(S(=O)(=O)Nc2ncccc2C)c(C)c1C | 0.16 | -1.91
